Rango complex inh: inhibitors of Rango-importin beta complex formation; Rango CFP/YFP FRET sensor + importin beta, 45 min; Potency, µM (series often up to 92.2 µM), without a hit: at the top dose inhibition of complex formation; 340,000 tested, 0.031% active; AID 540263; active = rising FRET ratio curve, often small or poorly fitted; inconclusive = mostly compound fluorescence or quenching in the first reads; inactive = flat curves in all reads;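 further: potency means the concentration at half of the fitted maximal effect; 0% = DMSO wells and 100% = buffer wells lacking importin beta; nearly all actives have a fitted effect of over 15% in size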
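Inhibition scored from the CFP 486 nm/YFP 530 nm FRET ratio 45 min after adding 0.125 microM importin beta to 50 nM Rango biosensor preincubated 5 min with compound (room temperature, PBS with DTT, Tween-20, BSA). No-importin wells as positive control.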
GLA inh pH 4.5: blocks human alpha-galactosidase A at pH 4.5; purified enzyme, 4-MU-alpha-Gal fluorescence, pH 4.5; activity change, negative = inhibition, % at 105 µM; 230,000 tested, under 10 active; inconclusive = small, poorly fitted or top-dose-only inhibition, or a rising curve; inactive = flat fitted curve, though single readings scatter; no compound was filed as active;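 further: 0% = full activity with enzyme and -100% = basal without enzyme; dose as in the result columns while the protocol names 77 µM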
Target sequence (P06280 whole entry, looked up): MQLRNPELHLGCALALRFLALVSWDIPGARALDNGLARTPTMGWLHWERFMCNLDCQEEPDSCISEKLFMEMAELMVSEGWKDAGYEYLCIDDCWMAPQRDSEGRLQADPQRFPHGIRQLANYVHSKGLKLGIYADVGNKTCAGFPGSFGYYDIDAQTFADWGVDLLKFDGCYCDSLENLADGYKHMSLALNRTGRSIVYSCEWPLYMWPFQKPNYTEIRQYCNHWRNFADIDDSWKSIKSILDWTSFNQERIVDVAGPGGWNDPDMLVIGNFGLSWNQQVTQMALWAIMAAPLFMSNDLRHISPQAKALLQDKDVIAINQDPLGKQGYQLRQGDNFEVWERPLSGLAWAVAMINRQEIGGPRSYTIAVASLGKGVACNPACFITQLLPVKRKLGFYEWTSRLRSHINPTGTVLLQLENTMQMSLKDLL
miR-21 FLuc: miR-21 reporter, rising signal; HeLa miR-21 FLuc reporter, luciferase, 48 h; Potency, µM (top dose mostly 38.3 µM), without a hit: at the top dose reporter change, positive = more light; 340,000 tested, under 10 active; AID 2288; active = well fitted rising curve with a large enough effect; inconclusive = small, poorly fitted or top-dose-only effect; inactive = no such curve, though single readings can be large or run the other way;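 further: % of control where 0% means no effect; miR-21 action dims this reporter so a rising signal means less miR-21 action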
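Compounds were titrated across several concentrations (up to approximately 40 uM) and incubated 48 hours with HeLa miR-21-FLuc reporter cells (miR-21 target sequence downstream of FLuc, endogenous miR-21). Readout was firefly luciferase luminescence after lytic detection reagent.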
Rango dissoc inh: inhibition of RanGTP-driven Rango-importin beta dissociation | Biochemical FRET Rango-importin beta, RanGTP-induced dissociation | Potency, µM (top dose mostly 46.1 µM), for the others: at the top dose activity change, negative = inhibition | O95149+P62826 | 340,000 tested, 0.071% active; active means falling FRET ratio curve, often poorly fitted, with flat reads before Ran was added; inconclusive means other falling curves, or compound fluorescence or quenching; inactive means flat or rising ratio curve;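 further: potency means the concentration at half of the fitted maximal effect; % of control where 0% means no effect; nearly all actives have a fitted effect of over 45% in size; -100% = wells without RanGTP and RCC1; the record marks most hits as doubtful in a second field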
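Two FRET readings bracket the reaction: one 5 min after compound meets Rango–importin beta, another 45 min after RanGTP-RCC1 (0.6 uM Ran, 0.2 uM RCC1, 2 mM GTP) is added. Only the second defines inhibition.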
Numbers without * were called inactive; u = inconclusive; x = no result given; & = joins results of further samples. This is a subset, so the mix of outcomes need not match the whole.

Each structure is followed by: Rango complex inh	GLA inh pH 4.5	miR-21 FLuc	Rango dissoc inh
O=c1[nH]c(=O)n(CC2CCCO2)c(O)c1/C=C1\C=Nc2ccccc21 (stereo not drawn)
    u	-1&-11	0%&6%	-21%&9%
CCOP(=O)(Cc1cc(C#N)oc1C)OCC
    -4.6%	-8	-6%	-2%
O=C(Cn1cnc2sc3c(c2c1=O)CCCC3)NCCC(=O)N1CCC2(CC1)OCCO2
    2.6%	5	-2%	-5%
COC(=O)C(O)(c1ccc(NC(=O)c2ccccc2)cc1)C(F)(F)F (stereo not drawn)
    -4.0%	-8	-30%	2%
Cc1ccc(N2C(=O)NC(=O)/C(=C\c3cc(C)n(-c4ccc(C(=O)O)cc4)c3C)C2=O)cc1
    u	x	-1%	u
O=C(NN=Cc1ccc(N(CCCl)CCCl)cc1)c1cc(=O)[nH]c(=O)[nH]1
    u	x	x	-24%
CCCCCn1c(=O)c(C(=O)NCc2ccccc2)c(O)c2ccccc21
    0.0%	x	1%	11%
Oc1ccc(/C=N/NP(=S)(c2ccccc2)c2ccccc2)c(O)c1O
    4.2%	-8	0%	9%
CCOP(=O)(/C=C(\Cl)c1ccccc1)C(O)c1ccc(F)cc1 (stereo not drawn)
    0.0%	x	0%	u
CCN(CC)c1ccc(CN(C)CCc2ccc(OC)c(OC)c2)cc1
    -3.5%	-7	-12%	-11%
O=C1CCN(C(=O)CNC(=O)Cc2ccccc2)CC1
    -1.1%	3	-1%	19%
CCCCCCC(Cl)(Cn1ccnc1)c1ccccc1 (stereo not drawn)
    -2.5%	x	x	12%
COc1ccc(-c2cc(=NCC(=O)O)c3ccccc3o2)cc1
    -3.4%	x	-72%	17%
CCCC1CCCCC12C(=O)NC(=O)NC2=O (stereo not drawn)
    -2.1%	x	x	11%
CNC(=O)Nc1ccc(C(=O)N/N=C\C23CC[C@@H](O)CC2(O)CC[C@@H]2[C@@H]3CCC3(C)C(C4=CC(=O)OC4)CCC23O)cc1 (stereo partly drawn)
    0.9%	-7	u	0%
NC1=Nc2ccccc2Oc2ccccc21
    2.6%	-5	0%	6%
CSc1ccc(C(=O)C2CCCN(Cc3cccnc3)C2)cc1 (stereo not drawn)
    -0.4%	2	12%	2%
O=C1NC(=O)N(Cc2cccs2)C(=O)/C1=C/c1ccc(N2CCOCC2)cc1
    7.9%	6	u	u
O=C1OCCC1NC1=NCCC1 (stereo not drawn)
    6.2%	-3	-2%	-5%
COc1ccc(CN2CC=C(c3ccc(F)cc3)CC2)cc1Br
    0.5%	x	2%	1%
CCOP(=S)(OCC)SCC(=O)NC(C)(CC)C(=O)O (stereo not drawn)
    u	-3	2%	7%
CCCCCn1c(=O)c(C(=O)NCc2ccco2)c(O)c2ccccc21
    0.7%	4	6%	11%
CC(C)N1CCN(Cc2cc3c(cc2Cl)OCO3)CC1CCO (stereo not drawn)
    0.1%	-5	0%	-8%
CCOP(=O)(C#CC(C)(C)C)C1(O)CCCCC1 (stereo not drawn)
    u	1	3%	-9%
CCCCC(=O)N/N=C/c1c(O)n(C2CC2)c(=S)[nH]c1=O
    0.2%	3	-3%	-2%
COc1ccc(NC2CC(=O)N(C(C)C)C2=O)cc1 (stereo not drawn)
    -2.2%	7	-15%	1%
COc1ccc(COC(=O)CCNC(=O)c2ccc(Cl)cc2)cc1
    u	x	x	-16%
CN1C2CCC1CC(=NO)C2
    -2.4%	x	0%	-4%
CCCC(=O)Nc1cc(C(=O)N2CCC3(CC2)OCCO3)ccc1S(=O)(=O)c1ccc(C)cc1
    5.1%	7	-4%	0%
CN(CC1COc2ccccc2O1)c1nc(-c2cccnc2)nc2ccccc12 (stereo not drawn)
    u	0	-5%	9%
COc1ccc(CC2C(=O)NC(C)C(=O)N(C)C3C(=O)N(C)C(Cc4ccc(O)c(c4)Oc4ccc(cc4)C3O)C(=O)NC(C)C(=O)NC(C)C(=O)N2C)cc1 (stereo not drawn)
    3.7%	x	x	-10%
CCN(CC)CCC(=O)O[C@H]1CC[C@]2(C)C3CC[C@@]4(C)C(CC[C@]4(C)O)C3CC[C@H]2C1 (stereo partly drawn)
    -0.5%	x	x	-11%
CCCN1CC[C@@H]2c3cc(O)ccc3CC[C@@H]21
    0.6%	1	x	0%
Cn1c(CN2CCN(C(=O)COc3ccccc3)CC2)nc2cc([N+](=O)[O-])ccc21
    -3.9%	5	6%	-19%
CSc1ccccc1C(=O)C1CCCN(Cc2ccncc2)C1 (stereo not drawn)
    -1.7%	6	0%	-1%
CCOP(=O)(Cc1ccccc1)OCC
    -0.8%	x	x	10%
COc1cc2[nH]c(=S)n(-c3ccccc3)c(=O)c2cc1OC
    -3.8%	-17	-1%	-3%
CCC1(C2=NCCN2)Cc2ccccc2O1 (stereo not drawn)
    -1.7%	0&3	x	-4%
c1ccc(NC2=NCCS2)cc1
    3.3%	-1	-1%	0%
C/C(=C\C(=O)c1ccc(Br)cc1)NCc1ccccc1
    0.0%	-11	-34%	9%
CCc1cc2c(N3CCN(C)CC3)ncnc2s1
    -1.7%	-1	-2%	-6%
COc1ccc(-n2c(O)c(/C=C3\C=Nc4ccc(Br)cc43)c(=O)[nH]c2=O)cc1
    0.3%	x	-1%	-1%
COc1cc(CN2C(=O)NC(=O)C3(Cc4cc(C)ccc4N(C)C3)C2=O)cc(OC)c1 (stereo not drawn)
    -1.2%	4	14%	-1%
COc1cccc(CCNCc2c(F)cccc2F)c1
    5.3%	5	-2%	9%
CC(=O)c1ccc2c(c1)OCO2
    -0.7%	6	-3%	14%
COc1ccc2c(C)c(CC(=O)N3C[C@H]4C[C@@H](C3)c3cccc(=O)n3C4)c(=O)oc2c1C
    -0.5%	x	2%	-6%
CC1(C)CC(N(CCc2ccccc2)Cc2ccccc2)CCO1 (stereo not drawn)
    -0.5%	-11	0%	20%
COc1ccc(-c2ccc3n2Cc2cnnn2-c2ccccc2-3)cc1
    -0.5%	x	x	-6%
CCc1ccccc1N1C(=O)CC(=O)NC1=O
    0.6%	8	1%	-5%
CCOC(=O)c1cnc(N2CC2)nc1N
    -1.6%	x	x	6%
O=c1c2ccccc2nc(-c2ccc(-c3ccccc3)cc2)n1-c1ccncc1
    -0.3%	-6	-4%	2%
COCCN1C(=O)NC(=O)/C(=C\c2ccc(Br)cc2)C1=O
    0.4%	2	-2%	14%
CC1CCC2[C@@H](C)C(=O)OC3O[C@]4(C)CCC1C32OO4 (stereo partly drawn)
    6.6%	x	x	3%
CCN(CC)C(=O)c1ccc(NC(=O)c2ccc3c(c2)NC(=O)CS3)cc1
    2.0%	x	x	11%
CN1CCC2(CC1)CC(NC=O)c1ccccc1O2 (stereo not drawn)
    0.0%	6	-4%	11%
OC(c1ccc(F)cc1)(c1ccc(F)cc1)[C@@H]1CCCN1
    3.7%	0	0%	-14%
CN(C)P(=NC(=S)c1cccn1C)(N(C)C)N(C)C
    2.1%	-5	-1%	-10%
O=C1NC(=S)NC(=O)C1C/C=C/c1ccccc1
    0.0%	3	-1%	1%
CCCOC(=O)c1ccccc1C(=O)OCCC
    2.0%	x	x	-1%
COc1ccccc1CCNC1C2CC3CC(C2)CC1C3 (stereo not drawn)
    -4.7%	1	8%	0%

Continuation:
Each structure is followed by: Rango complex inh	GLA inh pH 4.5	miR-21 FLuc	Rango dissoc inh
CC[n+]1c(SC)ccc2cc(OC)ccc21
    u	9	-3%	10%
CC(NC(=O)Oc1ccccc1)C(c1cccs1)N1CCOCC1 (stereo not drawn)
    4.4%	-2	-3%	-1%
CCn1nc(-c2cccs2)nc2c(=O)n(C)c(=O)nc1-2
    0.2%	-1	0%	-7%
CN(C)C1C(=O)C(C(N)=O)=C(O)C2(O)C(=O)C3=C(O)c4c(O)cccc4C(C)(O)C3CC12 (stereo not drawn)
    2.9%	x	3%	-21%
FC(F)(F)Oc1ccc(C2NCc3ccccc3-n3cccc32)cc1 (stereo not drawn)
    0.8%	x	-1%	18%
CC(=O)N1N=C2C3CCN(CC3)C2C1c1ccccc1 (stereo not drawn)
    -3.0%	1	0%	1%
Cc1nc2c(c(=O)[nH]1)C(c1ccccc1Cl)c1c(c3ccccc3oc1=O)O2 (stereo not drawn)
    0.2%	1	-2%	29%
C[C@]12CCC3C(CC[C@H]4C[C@@H](O)CC[C@]34C)C1C[C@@H](N)[C@@H]2O (stereo partly drawn)
    -1.5%	x	x	6%
O=[N+]([O-])c1ccc(C2[C@H]3C(c4ccccc4)=NC4(CCCC4)N23)cc1 (stereo partly drawn)
    3.2%	-1	-2%	-11%
O=C(COc1ccc2ccc(=O)oc2c1)N1CCC(C(=O)O)(c2ccccc2)CC1
    -1.4%	x	1%	0%
CCOC(=O)c1[nH]ncc1CN1CCCC(C(=O)c2cccc(Cl)c2)C1 (stereo not drawn)
    -5.3%	0	-1%	-3%
CN1C(=O)N(C)C(=O)C(CCc2ccncc2)(Cc2ccc3c(c2)OCO3)C1=O
    -2.7%	1	1%	17%
COc1ccc(CCn2c(O)c(/C=N/NC(=O)c3ccncc3)c(=O)[nH]c2=O)cc1OC
    u	-3	1%	u
COc1ccc(OCC#CCN2CCNCC2)cc1
    -3.2%	x	-12%	3%
CNc1cc(N2CCN(C)CC2)ccc1[N+](=O)[O-]
    -1.4%	-17	-7%	1%
CC(=O)[C@@]1(O)CC[C@H]2[C@@H]3CC=C4C[C@@H](O)CC[C@]4(C)[C@H]3CC[C@@]21C
    -3.2%	14	-6%	-12%
O=c1c2ccccc2nc(/C=C/c2ccc([N+](=O)[O-])o2)n1-c1ccc(O)cc1
    u	-1	u	u
C=CCC1(CC)C(=O)NC(=S)NC1=O
    -1.5%	x	x	2%
COc1ccc(OCCn2cc(/C=C(\C#N)C(=O)NCc3ccco3)c3ccccc32)cc1
    u	-1	-5%	u
CN(C)C(=O)Oc1c(Cl)cc(Cl)c2ccccc12
    -0.8%	-10	-1%	-9%
COc1ccc(CC(=O)C2C(=O)N(C)c3ccccc32)cc1OC (stereo not drawn)
    -0.2%	x	x	-16%
Cc1cc(=O)oc2c(C)c(OCC(=O)N3CCC(C(=O)O)(c4ccccc4)CC3)ccc12
    1.4%	x	0%	-5%
COC(=O)C1=C(c2ccc(F)cc2F)C[C@@H]2CC[C@H]1N2C(=O)NC1CCCCC1
    u	x	x	u
c1cncc(CNC2=NCCC2)c1
    0.3%	-4	0%	-4%

Quoted at random: 7 entries already listed, in no set order.
Each structure is followed by: Rango complex inh	GLA inh pH 4.5	miR-21 FLuc	Rango dissoc inh
CC(=O)[C@@]1(O)CC[C@H]2[C@@H]3CC=C4C[C@@H](O)CC[C@]4(C)[C@H]3CC[C@@]21C
    -3.2%	14	-6%	-12%
Cc1cc(=O)oc2c(C)c(OCC(=O)N3CCC(C(=O)O)(c4ccccc4)CC3)ccc12
    1.4%	x	0%	-5%
O=c1c2ccccc2nc(/C=C/c2ccc([N+](=O)[O-])o2)n1-c1ccc(O)cc1
    u	-1	u	u
CCOC(=O)c1[nH]ncc1CN1CCCC(C(=O)c2cccc(Cl)c2)C1 (stereo not drawn)
    -5.3%	0	-1%	-3%
O=[N+]([O-])c1ccc(C2[C@H]3C(c4ccccc4)=NC4(CCCC4)N23)cc1 (stereo partly drawn)
    3.2%	-1	-2%	-11%
CCn1nc(-c2cccs2)nc2c(=O)n(C)c(=O)nc1-2
    0.2%	-1	0%	-7%
CC(=O)N1N=C2C3CCN(CC3)C2C1c1ccccc1 (stereo not drawn)
    -3.0%	1	0%	1%

Screens: PubChem, National Center for Advancing Translational Sciences (NCATS)
